LASV entry inh: Lassa virus entry inhibition; AID 540256; Potency, µM (series often up to 37.9 µM), without a hit: top-dose activity change, negative = inhibition, most hits filed as inhibitors; 300,000 compounds, 1.2% hits; Lassa virus pseudotype entry inhibition, cell reporter; control for the full effect not named in the record; active means well fitted inhibition curve with a large enough effect; inconclusive means small, poorly fitted or top-dose-only effect, or effect the other way; inactive means flat fitted curve, though single readings scatter; tested in HEK293 cells; further: nearly all actives have a fitted effect of over 50% in size; luciferase read-out
StopGo reporter: lowers the luciferase signal of an FMDV 2A StopGo reporter; human cells with a luciferase reporter of 2A StopGo recoding; control for the full effect not named in the record; Potency, µM (doses to about 57.9 µM), inactives show top-dose signal change, negative = less light; 410,000 compounds, 1.2% hits; AID 1159524; active = well fitted falling curve with a large enough effect; inconclusive = small, poorly fitted or top-dose-only effect; inactive = no such curve, though single readings can be large or run the other way; tested in HEK293T cells; further: nearly all actives have a fitted effect of over 45% in size; luciferase light after 4 h
Starred values were filed as active, the others as inactive; ? = inconclusive; [ ] = remark or other dose. On the % scale 0 is the no-effect control and ±100 the full control effect; potency means the concentration at half of the fitted maximal effect. Not all compounds are listed, so the mix of outcomes need not match the whole.

SMILES	LASV entry inh	StopGo reporter
COc1ccc(C2CC(=O)NC(NC(=O)c3ccc(Br)cc3)=N2)c(OC)c1OC (configuration not stated)	11%[46.1 µM]	-8%
CCCOc1ccc(CNC(=O)c2ccc(-n3c(C)cc4c3CCC(C)C4)cc2)cc1 (configuration not stated)	-27%[46.1 µM]	-8%
CCOc1ccccc1NC(=O)CN1Cc2ccccc2C1=O	-6%[46.1 µM]	-7%
Cc1cccc(S(=O)(=O)c2cn(Cc3ccccc3)c3cc(N4CCOCC4)c(F)cc3c2=O)c1	-27%[46.1 µM]	26%
Cc1cccc(NC(=O)N2CCC(CN3CCC(C)CC3)CC2)c1C	-11%[46.1 µM]	-13%
O=C(Nc1ccccc1F)C(c1ccccc1)N1Cc2ccccc2C1=O (configuration not stated)	27%[46.1 µM]	40%[activator]
Cc1cccc(CCNC(=O)c2nc(-c3ccc(Cl)cc3)n3c2CCCCC3)c1	-23%[46.1 µM]	-23%
CCC(NC(=O)Nc1ccc(OC)c(OC)c1)c1c(-n2cccc2)sc2c1CCN(C)C2 (configuration not stated)	8%[46.1 µM]	-2%
CCN1CCc2c(sc(-n3cccc3)c2C(C)NC(=O)Nc2ccc(Br)cc2)C1 (configuration not stated)	17%[46.1 µM]	27%
CCCN1CCN(CCCNC(=O)Cn2c(-c3cccs3)cc3ccccc32)CC1	-22%[46.1 µM]	-11%
CC1CCCN(CCCNC(=O)Cn2ncc3c([nH]c4ccccc43)c2=O)C1 (configuration not stated)	16%[46.1 µM]	-17%
CCCn1c2ccccc2c2cnn(CC(=O)NCCc3ccc(OC)cc3OC)c(=O)c21	-4%[46.1 µM]	-15%
Cc1cccc(N(C)S(=O)(=O)c2cc3[nH]c(=O)c(=O)[nH]c3cc2C)c1	-9%[46.1 µM]	-8%
CCc1nc(SC)ncc1C(=O)NCc1cccc(Br)c1	-2%[46.1 µM]	-7%
O=S(=O)(NCc1ccc(F)cc1)c1ccc2[nH]c3c(c2c1)CCCC3	3%[46.1 µM]	27%
COc1ccc(CNC(=O)Cn2ncc3c([nH]c4ccccc43)c2=O)cc1	-10%[46.1 µM]	-17%
Cc1ccc2sc(N(CCCN(C)C)C(=O)c3ccco3)nc2c1C	-24%[46.1 µM]	-3%
COc1ccc(OC)c(CNC(=O)C2CCN(c3ncnc4c3nc3n4CCCCC3)CC2)c1	-17%[46.1 µM]	-10%
CC(C(=O)NCc1ccccc1)N1Cc2ccccc2C1=O (configuration not stated)	-1%[46.1 µM]	-10%
CCN1CCC(N(Cc2ccc(F)cc2)C(=O)Nc2cc(C)ccc2C)CC1	-4%[46.1 µM]	-4%
CC(=O)c1ccc(N2CCN(S(=O)(=O)c3ccc4c(c3)CC(C)N4C(=O)C3CCC3)CC2)cc1 (configuration not stated)	?	?
CCOc1ccccc1NC(=O)N(Cc1ccc(F)cc1)C1CCN(CC)CC1	?	25%
COc1cc(Cl)c(NC(=O)c2cc(S(=O)(=O)N3CCOCC3)cn2C)c(OC)c1	-1%[46.1 µM]	-2%
CCC1CN(C(=O)Nc2ccccc2C(F)(F)F)c2ccccc2S1 (configuration not stated)	0%[46.1 µM]	-7%
CC(C)N(Cc1ccccc1)C(=O)c1nc(-c2ccc(Cl)cc2)n2c1CCCCC2	?	?

Gathered by group: the entries above containing a Cl atom (3)
SMILES	LASV entry inh	StopGo reporter
Cc1cccc(CCNC(=O)c2nc(-c3ccc(Cl)cc3)n3c2CCCCC3)c1	-23%[46.1 µM]	-23%
COc1cc(Cl)c(NC(=O)c2cc(S(=O)(=O)N3CCOCC3)cn2C)c(OC)c1	-1%[46.1 µM]	-2%
CC(C)N(Cc1ccccc1)C(=O)c1nc(-c2ccc(Cl)cc2)n2c1CCCCC2	?	?

The listing continues:
SMILES	LASV entry inh	StopGo reporter
CCN1CCC(N(Cc2cccc(OC)c2)C(=O)Nc2cccc(C)c2C)CC1	-2%[46.1 µM]	-10%
CCN(Cc1ccccc1)S(=O)(=O)c1ccc2c(c1)CC(C)N2C(=O)C1CCC1 (configuration not stated)	2.8µM*	-20%
CCCS(=O)(=O)N1CC(=O)N(c2ccccc2C)C(C)(C(=O)NC2CCCC2)C1 (configuration not stated)	-4%[46.1 µM]	1%
O=C(C1CCN(c2ncnc3c2nc2n3CCCCC2)CC1)N1CCN(c2ccc(Cl)cc2)CC1	13%[46.1 µM]	-4%
c1ccc(N2CCN(c3ncnc4c3nc3n4CCCCC3)CC2)cc1	?	10µM*
Cc1ccc2c(c1)N(CC(=O)Nc1ccccc1C(F)(F)F)C(=O)c1cccnc1O2	9%[46.1 µM]	0%
O=C(Cn1c(-c2cccs2)cc2cc(F)ccc21)N1CCN(c2cccc(Cl)c2)CC1	26%[46.1 µM]	-16%
COC(=O)c1ccc(Cl)cc1NC(=O)N1CCC(CN2CCC(C)CC2)CC1	9%[46.1 µM]	-7%
COc1ccc(NS(=O)(=O)c2ccc3[nH]c4c(c3c2)CCCC4)cc1Cl	-5%[46.1 µM]	55%[activator]
CCS(=O)(=O)N1CC(=O)N(c2ccc(C)c(C)c2)C(C)(C(=O)NC2CCCCCC2)C1 (configuration not stated)	-7%[46.1 µM]	-8%
O=C(COCc1cc(-c2cccs2)on1)N1CCN(c2ccccc2)CC1	-2%[46.1 µM]	-23%
Cc1ccc(-c2cn3nc(N4CCC(C(=O)Nc5ccccc5C)CC4)sc3n2)cc1	31%[46.1 µM]	16%
O=C(CCCN1C(=O)c2cccnc2Oc2ccc(Cl)cc21)NCc1ccc(F)cc1	14%[46.1 µM]	-16%
COC(=O)c1ccc(NC(=O)C2CCN(c3ncnc4c3nc3n4CCCCC3)CC2)cc1	-1%[46.1 µM]	-22%
CC1CCN(c2cc3c(cc2F)c(=O)c(S(=O)(=O)c2ccc(Cl)cc2)cn3C)CC1	4%[46.1 µM]	-21%
CCCn1c2ccccc2c2cnn(CC(=O)NCCCN(CC)c3ccccc3)c(=O)c21	35%[46.1 µM]	16%
CCN(CC)CCN(C(=O)c1ccco1)c1nc2ccc(Br)cc2s1	?	-12%
CCOc1ccccc1CNc1ncnc2c1nc1n2CCCC1	?	-1%
Cc1cc(Nc2cccc(Cl)c2)nc2ccc(NC(=O)Cc3cccc(C(F)(F)F)c3)cc12	-8%[46.1 µM]	-14%
Cc1ccccc1CNC(=O)c1ccc(Cn2c(SCc3cccc(F)c3)nc3cccnc32)cc1	-10%[46.1 µM]	-5%
CCOC(=O)c1ccccc1NC(=O)N(Cc1ccco1)C1CCN(C(C)=O)CC1	-5%[46.1 µM]	-27%
Cc1ccccc1C(=O)Nc1ccc2nc(Nc3cccc(C(F)(F)F)c3)cc(C)c2c1	-24%[46.1 µM]	?
Cc1ccc(N2CCN(C(=O)CCS(=O)(=O)c3cc4c(cc3Cl)NC(=O)CO4)CC2)c(C)c1	-23%[46.1 µM]	?
O=C(NCc1ccccc1)C1CCN(c2ncnc3c2nc2n3CCCCC2)CC1	9%[46.1 µM]	-8%
O=C(CN1C(=O)c2cccnc2Oc2ccc(Cl)cc21)NCCCN1CCCCC1	17%[46.1 µM]	8%
New compounds follow
SMILES	LASV entry inh	StopGo reporter
O=C(Nc1ccc(F)c(Cl)c1)N(Cc1ccc2c(c1)OCO2)C1CCN(Cc2ccccc2)CC1	?	-20%
COc1ccc(NC(=O)Cn2cc(S(=O)(=O)Cc3ccc(F)cc3)c3ccccc32)cc1OC	22%[46.1 µM]	-18%
O=C(NCc1cccc(Cl)c1)C1CCCN(c2nn3cc(-c4ccc(F)cc4)nc3s2)C1 (configuration not stated)	-6%[46.1 µM]	11µM*
CCOc1cc(C(=O)Nc2ccc(-c3nnc4n3CCCCC4)cc2)cc(OCC)c1OCC	-5%[46.1 µM]	-25%
COc1cc(NC(=O)c2nc(-c3ccc(Cl)cc3)n3c2CCCCC3)cc(OC)c1OC	14%[46.1 µM]	-17%
O=C(NCCc1ccccc1)c1ccc(CSc2nc3cccnc3n2Cc2ccccc2F)cc1	-15%[46.1 µM]	-8%
Cc1ccc(NC(=O)Cn2cc(S(=O)(=O)Cc3cccc(Cl)c3)c3ccccc32)cc1C	?	-18%
Cc1ccc(Cl)cc1N1CCN(c2ncnc3c2nc2n3CCCC2)CC1	?	28µM*
Cc1cc(C)cc(NC(=O)CN(C)S(=O)(=O)c2ccc3[nH]c4c(c3c2)CCCC4)c1	-4%[46.1 µM]	-7%
Cc1cc(C)cc(NC(=O)CSc2nc3ncccc3[nH]2)c1	8%[46.1 µM]	-5%
CSc1ncc(C(=O)Nc2ccccc2C(=O)c2ccccc2)c(C(F)(F)F)n1	?	-8%
CCOc1ccccc1NC(=O)CN1C(=O)COc2ccc(S(=O)(=O)NC3CCCC3)cc21	9%[46.1 µM]	14%
COC(=O)c1ccc(Nc2ncnc3c2nc2n3CCCC2)cc1	26%[46.1 µM]	-6%
COc1ccc(NC(=O)N(Cc2ccco2)C2CCN(C(C)=O)CC2)c(OC)c1	11%[46.1 µM]	-2%
Cc1ccc(CSc2nc3cccnc3n2Cc2ccc(C(=O)NCc3cccs3)cc2)cc1	-3%[46.1 µM]	-10%
Cc1ccc(NC(=O)N(Cc2ccc3c(c2)OCO3)C2CCN(Cc3ccccc3)CC2)cc1F	?	-14%
COc1ccc(CNC(=O)C2=C(C)C(=O)OC23CCCCC3)cc1OC	2%[46.1 µM]	-16%
Cc1ccc(C)c(S(=O)(=O)c2cn(Cc3ccccc3)c3cc(N4CCCC4)c(F)cc3c2=O)c1	-2%[46.1 µM]	23%
CCCCn1cc(S(=O)(=O)c2ccc(C)cc2)c(=O)c2cc(F)c(N3CCCCC3)cc21	0%[46.1 µM]	-3%
CCOc1ccc(Nc2ncnc3c2nc2n3CCCC2)cc1	?	-7%
COc1cccc(CNC(=O)c2ccc(CN3CC(=O)N4CCCCC4C3=O)cc2)c1 (configuration not stated)	-1%[46.1 µM]	-11%
Cc1ccccc1CNC(=O)CN1C(=O)CCCc2ccccc21	4%[46.1 µM]	15%
CCN(CC)CCCNC(=O)c1ccc(Cn2c(SCc3ccccc3)nc3cccnc32)cc1	19%[46.1 µM]	2%
Clc1ccccc1Nc1ncnc2c1nc1n2CCCCC1	?	11%
COC(=O)C(CCSC)NC(=O)C1CCN(c2ncnc3c2nc2n3CCCCC2)CC1 (configuration not stated)	7%[46.1 µM]	16%

Retrieved by compound from the list above:
SMILES	LASV entry inh	StopGo reporter
COC(=O)C(CCSC)NC(=O)C1CCN(c2ncnc3c2nc2n3CCCCC2)CC1 (configuration not stated)	7%[46.1 µM]	16%
COC(=O)c1ccc(Nc2ncnc3c2nc2n3CCCC2)cc1	26%[46.1 µM]	-6%
CCCN1CCN(CCCNC(=O)Cn2c(-c3cccs3)cc3ccccc32)CC1	-22%[46.1 µM]	-11%
Cc1cccc(NC(=O)N2CCC(CN3CCC(C)CC3)CC2)c1C	-11%[46.1 µM]	-13%
CCOc1ccccc1NC(=O)CN1C(=O)COc2ccc(S(=O)(=O)NC3CCCC3)cc21	9%[46.1 µM]	14%

Next results
SMILES	LASV entry inh	StopGo reporter
COc1cc(OC)c(NC(=O)N2CCSc3ccccc32)cc1Cl	-14%[46.1 µM]	-27%
CCOc1ccccc1NC(=O)Cn1ncc2c([nH]c3ccccc32)c1=O	?	-15%
Cc1ccc(Cl)cc1N1CCN(c2ncnc3c2nc2n3CCCCC2)CC1	3%[46.1 µM]	?
CCN(CC)CCN(C(=O)c1ccc(C(=O)OC)cc1)c1nc2ccc(Cl)cc2s1	-1%[46.1 µM]	-3%
O=C(Nc1ccccc1)C(Cc1ccccc1)N1Cc2ccccc2C1=O (configuration not stated)	-3%[46.1 µM]	4%
COc1cc(OC)c(NC(=O)C2CCCN(c3ncnc4c3nc3n4CCCCC3)C2)cc1Cl (configuration not stated)	?	?
COc1ccc(CCNC(=O)Cn2cc(S(=O)(=O)Cc3ccccc3F)c3ccccc32)cc1OC	-1%[46.1 µM]	-8%
CCN(CC)c1cc2c(cc1F)c(=O)c(S(=O)(=O)c1ccc(C)cc1)cn2Cc1ccc(F)cc1	6%[46.1 µM]	-14%
O=C(CN1C(=O)COc2ccc(S(=O)(=O)NC3CCCC3)cc21)NCc1ccc(Cl)cc1	-10%[46.1 µM]	13%
Cn1cc(S(=O)(=O)c2ccc(Cl)cc2)c(=O)c2cc(F)c(N3CCCCCC3)cc21	-2%[46.1 µM]	-28%
COc1ccc(CNc2ncnc3c2nc2n3CCCC2)cc1	?	16%
Cc1ccc(S(=O)(=O)c2cn(Cc3ccccc3)c3cc(N4CCCC4)c(F)cc3c2=O)cc1	8%[46.1 µM]	-1%
COc1cc(NC(=O)N2CCC(CN3CCCCCC3)CC2)cc(OC)c1OC	19%[46.1 µM]	2%
CC(C(=O)Nc1ccc(F)c(Cl)c1)N1Cc2ccccc2C1=O (configuration not stated)	7%[46.1 µM]	-9%
COCCNC(=O)Cn1c(-c2cccs2)cc2cc(Cl)ccc21	-2%[46.1 µM]	-11%
CCc1ccccc1NC(=O)N1CCC(CN2CCc3ccccc3C2)CC1	-3%[46.1 µM]	-7%
CCCN(CCC)C(=O)Cn1c(SCc2cccc(C(F)(F)F)c2)nc2cccnc21	-1%[46.1 µM]	-24%

Entries of single compounds from above. Screens in order: LASV entry inh | StopGo reporter
COc1ccc(CCNC(=O)Cn2cc(S(=O)(=O)Cc3ccccc3F)c3ccccc32)cc1OC reads -1%[46.1 µM] | -8%
COc1cc(OC)c(NC(=O)N2CCSc3ccccc32)cc1Cl reads -14%[46.1 µM] | -27%
